From PubChem BioAssay
Vaccinia mCherry: inhibitors of vaccinia virus infection (mCherry reporter signal); Vaccinia virus mCherry reporter infection, fluorescence; about a quarter of the inactives have no number; Potency, µM (series often up to 36.5 µM), for inactives: at the top dose activity change, negative = inhibition, usual class: inhibitors; hit rate 0.63% among 310,000; AID 720579; active = well fitted inhibition curve with a large enough effect; inconclusive = small, poorly fitted or top-dose-only effect; inactive = no such curve, though single readings can be large or run the other way; tested in A549 cells; also: nearly all actives have a fitted effect of over 35% in size; inactives centre near -10
Vaccinia Venus: inhibitors of vaccinia virus (Venus reporter); hit rate 0.46% among 330,000; Vaccinia virus Venus reporter expression, fluorescence; Potency, µM (titrated, usually from 36.5 µM), for inactives: at the top dose activity change, negative = inhibition, usual class: inhibitors; AID 720580; active means well fitted inhibition curve with a large enough effect; inconclusive means small, poorly fitted or top-dose-only effect; inactive means no such curve, though single readings can be large or run the other way; tested in A549 cells; also: nearly all actives have a fitted effect of over 30% in size; inactives centre near -10
* = called active by the depositor; i = inactive; u = inconclusive; x = no result given; & = joins results of further samples; [ ] = another dose, or the depositor's remark. % is scaled to controls: 0 for no effect and ±100 for the full control effect; potency is read from the fitted curve at half-maximal effect.

SMILES	Vaccinia mCherry	Vaccinia Venus
CCc1ccccc1NC(=O)Cn1c(=O)n(-c2ccccc2)c(=O)c2oc3ccccc3c21	i	-18%
COc1ccc(NC(=O)CN(C)C(=O)CSCc2ccc(C)cc2)cc1	-26%	-18%
Cc1ccc(CN2CCN(CC(=O)N3CCC4(CC3)OCCO4)C2=O)cc1	-14%	-10%
COCCCN1C(=O)C(=O)/C(=C(/O)c2ccc(C)cc2)C1/C=C/c1ccccc1 (stereo not drawn)	-11%	-7%
C[C@@H]1CN([C@H](C)CO)C(=O)Cc2cc(NC(=O)CCC(F)(F)F)ccc2O[C@@H]1CN(C)C(=O)Nc1ccccc1	i	-25%
CCOC(=O)c1sc2ncn(/N=C/c3cccnc3)c(=O)c2c1C	x	-16%
Cc1cccc(C)c1OCC(=O)Nc1cccc(-c2nnc(-c3ccccc3)o2)c1	x	-9%
OCCC1CCCCN1CC(O)COCc1ccc(Cl)cc1 (stereo not drawn)	i	-1%
CCn1c2c(c3cc(Cl)ccc31)CCCC2=O	u	-19%
O=C(C1CCCN(S(=O)(=O)c2cccc3nsnc23)C1)N1CCN(c2ccccc2)CC1 (stereo not drawn)	-17%	-13%
COc1ccc2c(c1)C1NC(=S)NC(C)(O2)C1C(=O)Nc1ccc(C)cc1C (stereo not drawn)	-5%	-17%
FC(F)(F)c1ccc2c(c1)NCC1CCCN21 (stereo not drawn)	8%	8%
CC1=CC(C)(C)NC(=S)N1c1cc(C)cc(C)c1	-8%	-21%
CCc1ccccc1NC(=O)N1CCCn2nc(C)cc21	-12%	-11%
COc1ccccc1C(=O)OCc1nc(N)nc(Nc2ccccc2C)n1	-8%	-17%
CN(C)c1ccc(C(=O)c2ccc(N(C)C)c3ccccc23)cc1	x	u
N[C@H](C(=O)O)[C@H]1C[C@@H]1C(=O)O	i	-15%
COc1ccc(S(=O)(=O)NCC2CCCN(C(=O)c3ccco3)C2)cc1 (stereo not drawn)	i	-1%
O=C(CCSc1nc(-c2ccco2)cc(C(F)(F)F)n1)Nc1ccc2c(c1)OCO2	x	-14%
CCOC(=O)c1c(C)[nH]c(C(=O)C(C)N2CCCC2)c1C (stereo not drawn)	-11%	1%
O=C(CN1CCN(Cc2ccccc2)CC1)N/N=C/c1c[nH]c2ccccc12	i	-9%
Cc1ccc(-c2noc(CCC(=O)NCCCN3CCN(c4ccc(F)cc4)CC3)n2)cc1	x	-15%
C=CCn1c(=S)[nH]c2cc(-c3ccccc3)sc2c1=O	i	0%
COc1ccc(N=C2SC(CC(=O)Nc3cccc(Cl)c3)C(=O)N2Cc2ccco2)cc1 (stereo not drawn)	-10%	u
COc1ccc(C(=O)/C=C/NCc2ccc(C)cc2)cc1	-2%	-22%
COc1ccc(CNCCc2ccc(Cl)cc2Cl)cc1	-13%	-5%
Cc1cccc(C)c1NC(=O)C1(N(Cc2ccco2)C(=O)CC2NC(=O)NC2=O)CCCC1 (stereo not drawn)	-6%	-10%
CCCNC(=O)c1cc(C2CCCCN2C(=O)c2ccccc2)on1 (stereo not drawn)	-4%	-2%
Cc1cccc(S(=O)(=O)N(C)C[C@@H]2OCc3cnnn3CCCC(=O)N([C@H](C)CO)C[C@H]2C)c1	i	-4%
COCCSc1nnc(NC(=O)C2CC(=O)N(c3ccc(Cl)cc3)C2)s1 (stereo not drawn)	-3%	6%

Single values from the entries so far:
Cc1cccc(C)c1NC(=O)C1(N(Cc2ccco2)C(=O)CC2NC(=O)NC2=O)CCCC1 (stereo not drawn) | Vaccinia Venus: -10%
CCc1ccccc1NC(=O)N1CCCn2nc(C)cc21 | Vaccinia mCherry: -12%
COc1ccc(NC(=O)CN(C)C(=O)CSCc2ccc(C)cc2)cc1 | Vaccinia mCherry: -26%
C[C@@H]1CN([C@H](C)CO)C(=O)Cc2cc(NC(=O)CCC(F)(F)F)ccc2O[C@@H]1CN(C)C(=O)Nc1ccccc1 | Vaccinia Venus: -25%

Additional entries follow.
SMILES	Vaccinia mCherry	Vaccinia Venus
CCCCn1nnnc1C(c1cc2ccccc2o1)N(Cc1ccccc1)Cc1ccccc1 (stereo not drawn)	-20%	-11%
O=C(COc1ccccc1)NC(=S)Nc1ccc2c3c(cccc13)CC2	x	-21%
CCOC(=O)c1[nH]c(C)c(C(=O)OCC)c1C	-12%	-21%
N=C1CCCN1CC(=O)c1ccc(Br)cc1	-18%	-13%
COCCCNC(=O)CCn1c(=O)c2ccccc2n(CC(=O)Nc2c(C)cc(C)cc2C)c1=O	1%	-5%
OCCC1CN(Cc2c(F)cccc2Cl)CCN1C1CCCC1 (stereo not drawn)	-19%	-19%
Nc1ccn(CC(=O)NCCNc2ccc([N+](=O)[O-])cn2)c(=O)n1	-14%	4%
Cc1ccc2cc3cc(C(=O)NCCCN4CCCC4=O)oc3nc2c1	-11%	-25%
CC(=O)Nc1ccc(NC2=C/C(=N/S(=O)(=O)c3cccs3)c3ccccc3C2=O)cc1	u	11µM*
CCOC(=O)c1cnc2c(F)ccc(F)c2c1Sc1ccccc1	i	-5%
Cc1cccc(-n2nnc(-c3nc(-c4cccs4)no3)c2N)c1	3%	-4%
COC(=O)c1ccc(C(=O)OC)c(NC(=S)N2CCCCC2C)c1 (stereo not drawn)	-14%	-8%
O=C(Nc1ccccn1)Nc1cccs1	i	-9%
CC1(C(=O)NCc2ccc(C(F)(F)F)cc2)CCN1Cc1c(F)cccc1F (stereo not drawn)	u	-8%
COc1ccc(C=CC(=O)c2cc(O)ccc2O)cc1	7.9µM*	-24%
O=c1oc(-c2ccccc2)nc2sc3c(c12)CCCC3	-23%	-13%
CCCCCCCCN1[C@@H](CC(=O)O)c2cc(C(F)(F)F)ccc2S1(=O)=O	-19%&-13%	-13%&-10%
Cc1ccccc1N1C(=O)NC(=O)/C(=C\c2ccc3c(c2)CCCN3Cc2ccccc2)C1=O	-12%	4%
CC1Cc2cc(/C(O)=C3/C(=O)C(=O)N(CCCn4ccnc4)C3c3ccco3)ccc2O1 (stereo not drawn)	x	-18%
CCN(CC)S(=O)(=O)c1cccc2cc(C(=O)O)c(O)cc12	-2%	-8%
Cc1ccc(NC(=O)C2CCN(S(=O)(=O)c3cc(-c4noc(C)n4)ccc3C)CC2)c(C)c1	i	-23%
C=CCNC(=S)NNC(=O)C(CCCC)CC(C)(C)O (stereo not drawn)	x	-12%
COc1ccc(C(=O)O)cc1S(=O)(=O)NC(C)C	-1%	-3%
C/C(=N/NC(=O)c1cccnc1)C1=C(O)CC(C)(C)CC1=O	-10%	-15%
O=C(c1c[nH]c2ccccc12)N1CCN(c2ccccc2)CC1	u	-3%
Cc1ccc2cc3cc(C(=O)N(C)c4ccccc4C)oc3nc2c1	-8%	-6%
CCOCCCN(C(=O)CCC(=O)Nc1cc(C)on1)C(C(=O)NC(C)(C)CC)c1cccc(OC)c1OC (stereo not drawn)	-16%	-6%
O=C(O)c1ccccc1N=Cc1c(O)n(-c2nccs2)c(=O)c2ccccc12	-6%[7.34 µM]	4%[7.34 µM]
Cc1ccc(C(=O)OCC(=O)c2c[nH]c3ccccc23)cc1S(=O)(=O)N1CCCCC1	-5%	-16%
COc1ccc(OC)c(/C=C2\Cc3ccccc3C2=O)c1	-25%	-9%
CC(C)NC(=O)CSc1nnc(-c2ccncc2)n1-c1ccccc1	i	-19%
O=C(NCCCn1ccnc1)c1cccc(S(=O)(=O)Nc2ccc(Br)cc2)c1	-27%	-13%
NC(=O)c1nsc(C(=O)N(Cc2ccccc2Cl)C(C(=O)NCC2CCCO2)c2ccc(O)cc2)c1N (stereo not drawn)	-3%	3%
O=C(O)c1ccccc1Nc1cccc(C(F)(F)F)c1	u	u
CSCCC(NC(=O)c1ccccc1Cl)C(=O)NCCOc1ccc(C)cc1 (stereo not drawn)	i	-18%
COc1ccc(-c2noc(CCC(=O)N3CCN(c4cccc(C(F)(F)F)c4)CC3)n2)cc1	x	0%
COC(=O)C[C@@H]1C=C[C@@H](NS(=O)(=O)c2cccc(OC)c2)[C@@H](CO)O1	-6%	-16%
COc1ccc(Nc2nc3ccc(C)cc3cc2C#N)c(OC)c1	-12%	-5%
CC(C)C[C@H]1CN=C(Nc2ccccc2)N1CCc1cccc(F)c1	u	u
C=CC[C@H](CC(=O)NCCO)C(=O)N[C@@H](COC(=O)[C@H](CC=C)CC(=O)OC(C)(C)C)Cc1c[nH]c2ccccc12	i	-11%
COc1ccc(NC(=O)c2cc(-c3ccco3)nc3ccccc23)cc1S(=O)(=O)N1CCOCC1	-3%	0%
CN1CCN(c2ncnc3c2ncn3[C@H]2CN(C)C[C@@H](CO)O2)CC1	-4%	7%
CC(=O)Nc1cccc(NC(=O)c2cc(C)on2)c1	i	-3%
O=C(CSCSCC(=O)Nc1ccc2c(c1)OCO2)Nc1ccc2c(c1)OCO2	-12%	-4%
COc1cc2c(c(OC)c1OC)CC(=O)N(C)CC2	i	-2%
Oc1c(C(c2ccccc2)N2CCN(Cc3ccccc3)CC2)sc2nc(-c3ccco3)nn12 (stereo not drawn)	-22%	-13%
CCC(C)NC(=O)CN(c1cc(Cl)cc(Cl)c1)S(C)(=O)=O (stereo not drawn)	-3%	-9%
COCC(=O)N1C[C@H]2CON(C)[C@H]2C[C@H]1c1cccc(-c2ccccc2)c1	i	-5%
COc1cc(C#Cc2c(-c3ccccc3)n(C)c3ccccc23)cc(OC)c1	u	4%
COC(=O)C1C/C(=N\NS(=O)(=O)c2ccc(C)cc2)c2sccc2C1 (stereo not drawn)	-7%	-1%
COc1ccccc1/C=C/C(=O)Nc1ccc(S(=O)(=O)Nc2cc(C)on2)cc1	-1%	-12%
NC(=O)c1cccc(-c2coc3c(C(=O)NCCc4ccccc4)cccc23)c1	-1%	-28%
O=C(Nc1ccccc1C(F)(F)F)Nc1cccc2ccccc12	i	-9%
CCN1C(=S)N[C@@H](c2cccs2)C(C(=O)OC)=C1C	i	-3%
CCN(CC)C(=S)Nc1ccc2nc3n(c(=O)c2c1)CCCCC3	i	-12%
CC(C)Oc1ccc(C2CC(=O)NC3=C2C(=O)CCC3)cc1 (stereo not drawn)	x	-27%
COc1ccccc1CNC(=O)c1ccc(-c2nc(CS(=O)(=O)c3ccc(C)cc3)c(C)o2)cc1	-24%	-21%
CCOC(=O)c1c(NC(C)=O)sc2c1C1CCN2CC1	i	-11%
CCCCOc1nc2ccccc2nc1C(C#N)C(=O)NC1CCCCC1 (stereo not drawn)	i	-17%
CS(=O)(=O)c1[nH]nc(-c2ccccc2Cl)c1C#N	i	-13%
The list goes on.
SMILES	Vaccinia mCherry	Vaccinia Venus
CCOc1ccccc1NC(=O)CN1C(=O)C(C)SC(C)C1=O (stereo not drawn)	9%	-1%
Cc1noc(C)c1-c1ccc(C(=O)NCCc2ccccc2)c2occc12	-7%	-5%
COCCCn1c(=N)c(C(=O)NCC2CCCO2)cc2c(=O)n3ccccc3nc21 (stereo not drawn)	9%	11%
CCN(C(=O)c1ccc2c(c1)N(Cc1cccc(Cl)c1)C(=O)c1ccccc1S2=O)c1ccccc1 (stereo not drawn)	u	u
CCCCCNc1nc(N2CCCC2)c2c(c1C#N)CCN(C)C2	u	-19%
Cc1cc(=O)[nH]c2c1c(=O)[nH]n2C1CC(C)N(C)CC1C (stereo not drawn)	-12%	-7%
COc1cccc(NC(=O)CN2C(=O)C3(SCC(=O)N3c3cc(C)cc(C)c3)c3ccccc32)c1 (stereo not drawn)	-13%	-6%
Cc1ccc(S(=O)(=O)NCCC(=O)Nc2ccc3c(c2)OCO3)cc1	x	u
Cc1ccc(S(=O)(=O)NCC(=O)N(CC(=O)NCC2CCCO2)Cc2ccc(Cl)cc2)cc1 (stereo not drawn)	i	3%
Cc1noc(C)c1C(=O)OCC(=O)Nc1ccc(C(N)=O)cc1	0%	-8%
O=C(O)/C=C/c1ccc2ccccc2c1	-15%	-6%
COc1ccc(Cn2c(=O)n(-c3ccc(F)c(Cl)c3)c(=O)c3c2c2cc(OC)ccc2n3C)cc1	-12%	-4%
Cc1ccc(S(=O)(=O)N(CC(=O)NCCSc2ccc(Cl)cc2)c2ccccc2C)cc1	u	u
O=C([C@@H]1CCCN1C1=NS(=O)(=O)c2ccccc21)N1CCN(c2ccccc2)CC1	i	-9%
COc1ccc2[nH]c(=O)c(CN(C(C)=O)c3cc(C)ccc3C)cc2c1	i	-12%

Record cards, as listed above. Screens in order: Vaccinia mCherry | Vaccinia Venus
`Cc1noc(C)c1-c1ccc(C(=O)NCCc2ccccc2)c2occc12` is listed with -7% | -5%
`CCN(C(=O)c1ccc2c(c1)N(Cc1cccc(Cl)c1)C(=O)c1ccccc1S2=O)c1ccccc1` (stereo not drawn) is listed with u | u

2 compounds drawn at random from those above, as already listed:
SMILES	Vaccinia mCherry	Vaccinia Venus
O=C(O)/C=C/c1ccc2ccccc2c1	-15%	-6%
Cc1noc(C)c1C(=O)OCC(=O)Nc1ccc(C(N)=O)cc1	0%	-8%

Further records follow:
SMILES	Vaccinia mCherry	Vaccinia Venus
CC1C(c2ccccc2)OCCN1C=NC#N (stereo not drawn)	i	-6%
Cc1nc2ccccc2n1Cc1ccc(Br)cc1	i	0%
COc1ccc(CCN2CCC(CNC(=O)c3cnn(-c4ccccc4)c3C3CCN(C(=O)OC(C)(C)C)CC3)CC2)cc1	u	-29%
Cc1n[nH]c(C)c1CCC(=O)N/N=C/c1cccc([N+](=O)[O-])c1	-25%	2%
Oc1ccc(C2C(c3ccccc3)=NN=C(c3ccccc3F)N2O)c(O)c1 (stereo not drawn)	-10%	-10%
Cc1ccc(C(=O)NC(C(=O)NC2CCCC2)c2ccccc2)cc1 (stereo not drawn)	i	0%
O=C(NCCCN1CCCC1=O)Nc1ccc(F)c(Cl)c1	-8%	-7%
